MT1-MMP promoter = inhibitors of MT1-MMP promoter transcription, cell-based, luciferase reporter, luminescence (AID 618); calls from a first round at 10 µM; hits with a dose series show EC50 in µM; 87,000 tested, 0.62% active; MT1-MMP promoter luciferase reporter cells, luminescence;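 active = over half of the reporter light lost at 10 µM or EC50 under 50 µM; inactive = the rest and hits that failed the dose series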;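 also: actives suppress MT1-MMP promoter-driven transcription so potencies describe inhibitors; HT1080 fibrosarcoma cells; overnight exposure; toxic or luciferase-blocking compounds were not removed from the actives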
WNV protease inh = inhibitors of WNV NS2B-NS3 protease, primary screen, biochemical, fluorogenic substrate. AID 577, 2007. 65,000 tested, 0.18% active. fluorogenic substrate Ex360/Em465; stronger effect = lower value. z-score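 (tested at a level between 10 and 100 µM)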. Genome polyprotein (West Nile virus), P06935;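 active = z-score at -3 or under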;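 also: score is relative to mean and spread of the compound wells of a plate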
Target sequence (P06935 1371-1501 limits assumed): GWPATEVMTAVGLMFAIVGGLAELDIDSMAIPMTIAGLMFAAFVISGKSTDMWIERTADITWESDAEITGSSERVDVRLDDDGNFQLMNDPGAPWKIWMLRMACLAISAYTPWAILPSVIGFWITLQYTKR
Target sequence (P06935 1502-1679 limits assumed): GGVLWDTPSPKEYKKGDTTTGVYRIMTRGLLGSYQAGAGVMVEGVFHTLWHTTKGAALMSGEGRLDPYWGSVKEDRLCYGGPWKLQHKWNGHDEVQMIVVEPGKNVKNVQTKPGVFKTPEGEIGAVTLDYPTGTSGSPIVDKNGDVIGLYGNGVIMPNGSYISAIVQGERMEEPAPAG
Hsc70 = Hsc70 inhibitors, probe displacement, primary screen, biochemical, fluorescence polarization (AID 568); displacement, % at 20 µM; hits with a dose series show IC50 in µM; Hsc70 fluorescence polarization, probe displacement; higher % means a stronger effect; strong numbers were not always called active; Heat shock cognate 71 kDa protein (Homo sapiens); 83,000 tested, under 10 active;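 active = displacement above 50% without optical interference and an IC50 on retest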;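 also: ATPase domain with a fluorescein-tagged ATP probe; 0% = vehicle and 100% = excess ADP; read after one hour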
The depositor's hits bear a star; i = inactive; . = no result given; + = active, no number. Some of the compounds tested; count on the stated rates, not on these rows.

SMILES | MT1-MMP promoter | WNV protease inh | Hsc70
O=C1c2oc3ccc(F)cc3c(=O)c2C(c2ccccc2)N1CC1CCCO1 (stereo unspecified) | i | 0.13 | -1.2%
CCCCOC(=O)CCNc1n[nH]c(=O)[nH]c1=O | i | 0.21 | -3.5%
CCOC(=O)c1[nH]c(C)c(C(=O)NCc2ccc(OC)cc2)c1C | i | -2.6 | 1.2%
CCn1c(SCC(=O)NCCc2ccc(OC)c(OC)c2)nc2c1c(=O)n(C)c(=O)n2C | i | 0.71 | 5.0%
Brc1cc2c(cc1Cn1c(-c3cncs3)nc3ccccc31)OCO2 | i | 0.21 | -0.3%
CCn1c(CC(=O)Nc2cccc(OC)c2)nnc1SCC(=O)Nc1nccs1 | i | -0.56 | -2.7%
CCOC(=O)c1sc2ncn(C(C)C(=O)OCC)c(=O)c2c1C (stereo unspecified) | i | -0.0012 | -8.4%
Cc1ccc(CNC(=O)CCNS(=O)(=O)c2ccc(C)cc2)cc1 | i | . | 2.5%
COC(=O)CSc1nnc(CNc2ccc(Cl)cc2)n1-c1ccccc1 | i | . | -0.5%
O=C(NCc1cccs1)c1noc2c1CCCC2 | i | -1.2 | 0.8%
CCCCN(CCCC)C(=O)CN(C)S(=O)(=O)c1ccc2c(c1)n(C)c(=O)c(=O)n2C | i | -0.63 | -3.3%
O=C(COc1ccccc1F)NC1CC1 | i | 0.52 | 5.6%

Part of the list above, showing only MT1-MMP promoter:
compound	MT1-MMP promoter
O=C1c2oc3ccc(F)cc3c(=O)c2C(c2ccccc2)N1CC1CCCO1 (stereo unspecified)	i
CCCCOC(=O)CCNc1n[nH]c(=O)[nH]c1=O	i

The listing picks up, repeating the 2 entries before the break.
SMILES | MT1-MMP promoter | WNV protease inh | Hsc70
CCCCN(CCCC)C(=O)CN(C)S(=O)(=O)c1ccc2c(c1)n(C)c(=O)c(=O)n2C | i | -0.63 | -3.3%
O=C(COc1ccccc1F)NC1CC1 | i | 0.52 | 5.6%
C=CCSc1nnc(-c2ccc(Cl)cc2Cl)o1 | i | -0.5 | 0.4%
COCc1c(C(=O)OCc2nc(N)nc(Nc3ccccc3C)n2)oc2ccccc12 | i | 0.35 | 1.5%
O=C(CNC(=O)c1cccs1)c1ccc(F)cc1 | i | . | -7.5%
CC(C(=O)NC1CCCC1)N(Cc1ccc2c(c1)OCO2)C(=O)c1snc(C(N)=O)c1N (stereo unspecified) | i | -0.06 | -0.7%
COc1ccc(CCN(Cc2cc3cc4c(cc3[nH]c2=O)OCO4)C(C)=O)cc1OC | i | -0.43 | 0.2%
Cc1cc(C)n(CC(O)Cn2c3ccccc3c3ccccc32)c(=O)n1 (stereo unspecified) | i | -0.52 | -6.4%
COc1cc(S(=O)(=O)N(CCc2ccccc2)Cc2cccs2)ccc1-n1cnnn1 | i | . | 1.3%
O=C(O)CSc1nnc(Cn2c(=O)sc3ccccc32)n1-c1cccc(Cl)c1 | i | 0.19 | -6.4%
Cc1ccc(C)c(NC(=O)c2ccc(N(C)S(C)(=O)=O)cc2)c1 | i | . | -11%
COC(=O)c1sc(NC(=O)CSc2nncs2)c(C(=O)OC)c1C | i | . | -8.9%
O=C(CNC(=O)c1ccccc1C(=O)O)c1ccccc1 | i | -0.26 | -10%
O=C(CSc1nnc(-c2ccoc2)o1)N1CCOCC1 | i | 1.4 | 0.8%
CCOC(=O)c1cnn(-c2ccccc2)c1NC(=O)c1ccccc1 | i | 0.96 | 3.2%
Cc1ccc(CNC(=O)CSc2c3c(nc4cc(Cl)ccc24)CCCC3)o1 | i | . | -1.2%
Cc1nc(SCC(=O)N(C)Cc2ccco2)c2c(C)c(C)sc2n1 | i | -0.81 | 4.7%
CCC(=O)Nc1nnc(-c2ccncc2)s1 | i | . | 3.3%
CCOc1ccc(NC(=O)CN(C)CC(=O)Nc2cc(Cl)ccc2C#N)cc1OCC | i | . | 5.1%
CC1CC(C)CN(S(=O)(=O)c2cccc(C(=O)OCCN3CCCC3=O)c2)C1 (stereo unspecified) | i | . | 0.8%
OC(CNCC1CCCO1)Cn1c2ccc(Br)cc2c2cc(Br)ccc21 (stereo unspecified) | i | . | 7.2%
Cc1nc2ccccc2n1CC(O)COC1CCCCC1 (stereo unspecified) | i | . | 2.0%
O=C(CSc1nnc2ccccn12)N1CCc2ccccc2C1 | i | 0.58 | 0.1%
O=C(CSc1nnc(-c2ccc3c(c2)OCCO3)o1)NC1CCCCC1 | i | 0.94 | -0.9%
CCOC(=O)c1c(NC(=O)Cn2c(C)nc3ccccc32)sc2c1CCC2 | i | 0.17 | 0.2%
COc1ccc(-c2csc(N(CC3CCCO3)C(=O)c3ccc(C)cc3)n2)cc1 (stereo unspecified) | i | . | 2.7%
COc1ccc(OCc2cccc(C(=O)Nc3cc(C)on3)c2)cc1 | i | . | -0.4%
O=C(COC(=O)c1c2ccccc2cc2ccccc12)Nc1ncc(C(F)(F)F)cc1Cl | i | . | -0.3%
Cc1ccc(-c2ccc(=O)n(CC(=O)Nc3cccc(C(=O)N4CCN(C)CC4)c3)n2)cc1 | i | -0.31 | 3.8%
CCN(CC)C(=O)CN(C)S(=O)(=O)c1cccc2nsnc12 | i | 0.99 | -5.2%
O=C(Nc1nc(-c2ccc(S(=O)(=O)N3CCCC3)cc2)cs1)C1COc2ccccc2O1 (stereo unspecified) | i | -1.2 | -2.0%
COc1c(N)c2ccccc2[nH]c1=O | i | -0.13 | 3.0%
COc1cc(C(c2c(C)[nH][nH]c2=O)c2c(C)[nH][nH]c2=O)ccc1OCc1ccc([N+](=O)[O-])cc1 | i | . | -4.2%
CC1=NC2(CCCc3c2no[n+]3[O-])N(O)C1(C)C (stereo unspecified) | i | 0.76 | -1.7%
CC(C)(C)NC(=O)C(c1ccncc1)N(C(=O)CNC(=O)c1ccco1)c1ccc2c(c1)OCO2 (stereo unspecified) | i | -0.63 | -3.0%
Cc1ccccc1OCC(=O)Nc1ccc(C(N)=O)cc1 | i | . | 0.7%
CCCc1cc(=O)n2[nH]c(NCc3ccc(Cl)cc3Cl)nc2n1 | i | -0.34 | -6.7%
CCCC1CCC(C(=O)Nn2cnc3ccccc3c2=O)CC1 (stereo unspecified) | i | -0.65 | -0.2%
Cc1c(NS(=O)(=O)c2ccccc2)c(=O)n(-c2ccccc2)n1C | i | . | 2.2%
Cc1cccc2nc(=S)n(C(=O)c3ccco3)n12 | i | 0.13 | 2.6%
CN(C)CCCN1C(=O)C(O)=C(C(=O)c2cccs2)C1c1ccccn1 (stereo unspecified) | i | 0.41 | -0.3%
CSc1ccc(NC(=O)CC(C)=O)cc1 | i | -0.48 | 1.3%
Cc1ccc(C)c(CN2C(=O)C(C)Oc3ccc(C)cc32)c1 (stereo unspecified) | i | -0.22 | -1.0%
Cc1ccccc1NC(=O)C1CC(=O)N(c2ccccc2F)C1 (stereo unspecified) | i | -0.4 | -0.1%
COC(=O)C1CCN(C(=O)COc2ccc(Cl)cc2)CC1 | i | -0.83 | -3.0%
CCN1CCN(c2cc(C)c3cc(NC(=O)c4cnccn4)ccc3n2)CC1 | i | 0.21 | 2.0%
Brc1ccc(CSc2ncnc3nc[nH]c23)cc1 | i | 1.2 | 1.9%
CC(=O)Nc1cccc(NC(C)=O)n1 | i | . | -1.8%
Cc1ccc(S(=O)(=O)NCCC2(C(C)C)CCOC(C)(C)C2)cc1 (stereo unspecified) | i | . | 0.6%
CCOC(=O)N1CCC(n2c(=S)[nH]c3ccccc3c2=O)CC1 | i | . | 2.1%
Cc1ccc(Cn2c(C(=O)NCCCN3CCOCC3)cc3sccc32)cc1 | i | 0.93 | 0.2%
Cc1cc(C)n(S(=O)(=O)c2cccc(Cl)c2Cl)n1 | i | 0.36 | 6.5%
CCc1nnc(SCc2cn3c(C)cc(C)nc3n2)n1N | i | 0.23 | 2.2%
Cc1cc(C)n2nnnc2c1C#N | i | -0.64 | -0.1%
Cc1nn(CCC(=O)NNC(=S)Nc2cccc(Cl)c2)c(C)c1[N+](=O)[O-] | i | . | -1.7%
CCCN(CCC)S(=O)(=O)c1ccc(C(=O)N2CCC(=O)c3ccccc32)cc1 | i | 0.01 | 1.3%
COc1ccc(NC(=O)N2CCC(c3nc(-c4cccs4)no3)CC2)cc1 | i | -1.2 | -5.0%
CCC(=O)N1CCN(c2ccccc2NC(=O)c2ccc(OC)c(Cl)c2)CC1 | i | . | 4.1%
CCc1cccc2c(=O)c(C(=O)NCCN3CCOCC3)c[nH]c12 | i | 0.11 | -2.6%
C(=N\Nc1nn[nH]n1)/c1ccccc1 | i | . | -4.5%
CCCC(=O)N(Cc1cc2cc(C)ccc2[nH]c1=O)c1ccccc1OC | i | -0.06 | -7.7%
COc1ccc(C(=O)COC(=O)CCN=C2NS(=O)(=O)c3ccccc32)cc1OC | i | 0.63 | 0.0%
The listing continues:
SMILES | MT1-MMP promoter | WNV protease inh | Hsc70
COC(=O)C(CCCCNC(=O)OCc1ccccc1)NC(=O)CN (stereo unspecified) | i | 0.2 | 3.6%
CC(=O)Nc1ccc(S(=O)(=O)N2CCN(S(=O)(=O)N3CCCCCC3)CC2)cc1 | i | 0.03 | -2.7%
COc1ccc(NC(=O)c2ccc3c(=O)n(Cc4ccco4)c(=S)[nH]c3c2)c(OC)c1 | i | 0.96 | 2.8%
CC1CCCN(c2nc3c(c(=O)n(C)c(=O)n3C)n2CCSc2nc3ccccc3o2)C1 (stereo unspecified) | i | -0.08 | -6.9%
O=C(c1ccco1)N1CCN(C(=O)C2CCCN(S(=O)(=O)Cc3ccccc3)C2)CC1 (stereo unspecified) | i | 0.74 | -0.7%
COC(=O)Nc1ccc(S(=O)(=O)N(C)CC(F)(F)C(F)F)cc1 | i | -0.69 | 5.5%
CCC(C)(c1ccc(C(=O)OC)s1)c1ccc(C(=O)OC)s1 | i | 0.36 | 3.9%
CC(=O)Nc1ccc(S(=O)(=O)N2CCN(Cc3cccnc3)CC2)cc1 | i | . | -7.0%
CC1CCCC(NC(=O)COC(=O)c2ccc(S(=O)(=O)N3CCOCC3)cc2)C1C (stereo unspecified) | i | -0.95 | 111%
CCC(C(=O)N1CCOCC1)n1c(C(=O)OC)cc2occc21 (stereo unspecified) | i | -1.1 | 4.0%
CCOc1ccc(C(C)=O)cc1CN1C(=O)NC2(CCCCC2C)C1=O (stereo unspecified) | i | 0.22 | 7.4%
CC(=O)c1cn(CC(=O)NCc2ccc3c(c2)OCO3)c2ccccc12 | i | 0.02 | 5.1%

Record cards, from the list above. Order of screens: MT1-MMP promoter	WNV protease inh	Hsc70
COc1ccc(NC(=O)c2ccc3c(=O)n(Cc4ccco4)c(=S)[nH]c3c2)c(OC)c1 as listed: i	0.96	2.8%
O=C(c1ccco1)N1CCN(C(=O)C2CCCN(S(=O)(=O)Cc3ccccc3)C2)CC1 (stereo unspecified) as listed: i	0.74	-0.7%
CCC(C(=O)N1CCOCC1)n1c(C(=O)OC)cc2occc21 (stereo unspecified) as listed: i	-1.1	4.0%
CC1CCCC(NC(=O)COC(=O)c2ccc(S(=O)(=O)N3CCOCC3)cc2)C1C (stereo unspecified) as listed: i	-0.95	111%
CC(=O)Nc1ccc(S(=O)(=O)N2CCN(S(=O)(=O)N3CCCCCC3)CC2)cc1 as listed: i	0.03	-2.7%

The listing continues.
SMILES | MT1-MMP promoter | WNV protease inh | Hsc70
c1ccc(Cc2ccc(OCCn3cncn3)cc2)cc1 | i | 1.2 | 1.0%
Cc1ccc(C)c(OCC(=O)Nc2ccc(S(=O)(=O)N3CCN(C)CC3)cc2)c1 | i | . | 5.2%
CCOc1ccccc1C(=O)N1CCN(c2cccc(Cl)c2)CC1 | + | 0.31 | 5.9%
COc1cccc(-n2c(Cc3cc(=O)[nH]c(=O)[nH]3)nnc2SCC(=O)N2CCCCCC2)c1 | i | 1.6 | -2.4%
CCOC(=O)C1(C)NC(c2ccccc2F)C2C(=O)N(c3cccc(C(C)=O)c3)C(=O)C21 (stereo unspecified) | i | -0.17 | -7.9%
CCN(CCNC(=O)C1CCN(c2nnc(-n3cccc3)s2)CC1)c1ccccc1 | i | -0.02 | 5.9%
CC(C)Sc1nnc(Nc2ccccc2)s1 | i | 1.2 | -1.4%
Cc1ccc(CN/C=C/C(=O)c2ccc(Br)cc2)cc1 | i | . | -2.2%
O=c1c(N2CCOCC2)nsn1Cc1ccccc1 | i | -0.9 | -0.7%
Cc1cc2cc(CCNC(=O)c3c(-c4ccccc4Cl)noc3C)c(=O)[nH]c2cc1C | i | -0.84 | 1.8%
CC(C)c1ccc(C(O)c2cnc(C(C)C)n2C)cc1 (stereo unspecified) | i | -0.06 | 9.7%
CC(C)OC(=O)c1cc2ccccc2oc1=O | i | -0.21 | 10%
CN(C(=O)COC(=O)c1ccccc1Nc1ccccc1)C1CCS(=O)(=O)C1 (stereo unspecified) | i | 1.1 | -1.6%
CCOC(=O)CCN(Cc1sccc1C)S(=O)(=O)c1ccc(F)cc1 | i | . | 2.5%
NS(=O)(=O)c1ccc(NC(=O)CSc2nnc(Cc3cccs3)n2-c2ccccc2)cc1 | i | -0.01 | -0.3%
OCCN(Cc1ccccc1)CC1CC=CCC1 (stereo unspecified) | i | 2.1 | -0.1%
CC(=O)Nc1c(O)[nH]c2ccccc12 | i | -0.56 | 1.2%
Cc1c(C)[n+](=O)c(-c2cccs2)c(C)n1[O-] | i | -0.85 | -2.9%
O=S(=O)(Nc1ccc2c(c1)OCCO2)c1cnc[nH]1 | i | 1 | -0.2%
O=S(=O)(c1ccc2ccccc2c1)N1CCN(C2CCN(Cc3ccccc3)CC2)CC1 | i | . | -2.2%
